# LT uptake inh = qHTS Assay for Anthrax Lethal Toxin Internalization. Potency, µM (titrated, usually from 40 µM), inactives show top-dose activity change, negative = inhibition, most hits filed as inhibitors. 0.67% of 70,000 active. AID 912, 2007. Cells, anthrax lethal toxin internalization, FRET ratio (460/530); active = well fitted falling ratio curve with the 530 nm signal flat; inconclusive = other ratio curves, or a change in one channel alone; inactive = flat curves in the ratio and both channels; the % refers to the ratio; note: % is set by controls: 0 for no effect and ±100 for the full control effect; nearly all actives have a fitted effect of over 50% in size; tested in ME-180 cells; beta-lactamase reporter
# SmPrx2 inh = Schistosoma Mansoni Peroxiredoxins (Prx2) | Schistosoma mansoni peroxiredoxin 2 (Prx2) | S. mansoni Prx2 activity coupled to TGR/GSH (TGR is thioredoxin glutathione reductase), NADPH fluorescence loss, qHTS; some inactives read as strong as hits | Potency, µM | 0.07% of 65,000 active | AID 448, 2006; active means full or partial inhibition curve with a strong effect at the top dose; inconclusive means weaker partial or single-point curve; inactive means no accepted curve; note: series up to 57 µM; many of its hits are not listed in these tables
#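 Activity is read as the drop in NADPH fluorescence (365/450 nm), recorded every 30 sec for 8 min after H2O2 addition. Prx2 is coupled to TGR-driven NADPH oxidation through glutathione, in phosphate buffer pH 7.4.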
# * = called active by the depositor; ? = inconclusive; / = no result given; [ ] = remark or other dose. Potency is the fitted concentration of half-maximal effect.
# Results follow in this order: LT uptake inh	SmPrx2 inh
Cc1ccnc(N2C(=O)OC(C)(C)C2(C)O)c1 (configuration not stated)
→ 6.2%	>57
CCOCC(=O)Nc1ccc(-c2cn3cccnc3n2)cc1
→ 4.4%	>57
COc1ccc2[nH]cc(CCNc3ncncc3-c3ccc(C(=O)N(C)C)cc3)c2c1
→ ?	>57
CC1(C)S[C@@H]2[C@H](C(=O)O)N=C(Cc3ccccc3)N2[C@H]1C(=O)O
→ 0.4%[8 µM]	>57
OB(O)c1cc2ccccc2o1
→ -12.9%	/
O=C(CCn1c(=O)sc2ccccc21)NCc1ccco1
→ 6.0%	>57
CS(=O)(=O)N(CCc1ccccc1)CC(N)=O
→ 15.1%	>57
COc1ccc(N(CC(=O)NCc2cccs2)S(=O)(=O)c2cccnc2)cc1
→ -6.6%	>57
CC(=O)Nc1ccc(C(=O)OC2CCOC2=O)cc1 (configuration not stated)
→ 10.0%	>57
COc1ccc(CN2C(=O)CN=C2Nc2cc(C)ccc2C)cc1
→ -9.2%	>57
CCCCOC(=O)Cn1c(=O)c2c(nc3n2CCCCN3c2ccc(C)cc2)n(C)c1=O
→ ?	>57
C#CCN(C#N)c1nc(NCC)nc(NC(C)C)n1
→ ?	>57
Brc1ccccc1-c1nnc(CSc2nncn2-c2ccccc2)o1
→ -1.4%	>57
CC1CCc2sc3ncnc(N4CCOCC4)c3c2C1 (configuration not stated)
→ 2.2%	>57
O=C(O)CCN1CCc2ccccc21
→ -3.5%	>57
CC(C)c1nnc(NC(=O)Cn2nc(-c3ccc4c(c3)OCCO4)ccc2=O)s1
→ 0.0%	>57
CN1CCN(c2ncc3ncc(=O)n(C)c3n2)CC1
→ -7.9%	>57
COc1ccc(NC(=O)C(C)NS(=O)(=O)c2ccccc2)cc1Cl (configuration not stated)
→ -0.3%	>57
COC(=O)C1=C(C)N(c2cccc3ccccc23)C(=O)C1
→ -2.8%	>57
O=S(=O)(Nc1ccc2c(c1)nc1n2CCOC1)c1ccc(Cl)cc1
→ 20.2%	>57

# Compound profiles, from the list above. Order of screens: LT uptake inh | SmPrx2 inh
# Record of `COc1ccc(NC(=O)C(C)NS(=O)(=O)c2ccccc2)cc1Cl` (configuration not stated) : -0.3% | >57
# Record of `O=C(CCn1c(=O)sc2ccccc21)NCc1ccco1` : 6.0% | >57
# Record of `C#CCN(C#N)c1nc(NCC)nc(NC(C)C)n1` : ? | >57
# Record of `Brc1ccccc1-c1nnc(CSc2nncn2-c2ccccc2)o1` : -1.4% | >57

# (further entries)
# Results follow in this order: LT uptake inh	SmPrx2 inh
Cc1ccc(O)c(C(=O)c2cc(C#N)c(=O)n(CC3CCCO3)c2)c1 (configuration not stated)
→ -8.7%	>57
Cc1ccc(S(=O)(=O)c2nc(S(C)(=O)=O)sc2N(C)C)cc1
→ ?	>57
CN(C)c1nc(SCCOC(=O)c2ccccc2)nc(N(C)C)n1
→ ?	>57
S=c1[nH]nc(-c2ccccc2)n1CC1CCCO1 (configuration not stated)
→ 2.1%	>57
O=C(c1ccco1)N1CCN(C(=O)c2cc3c(s2)-c2ccccc2OC3)CC1
→ -18.8%	>57
COC(=O)CSc1nnc(CNC(=O)c2ccco2)n1-c1ccc(F)cc1
→ 8.9%	>57
O=C(CSc1nnnn1-c1ccc2c(c1)OCCO2)c1cccc2c1OCCO2
→ -6.0%	>57
CC(=O)c1c(C)[nH]c(C(=O)OCc2nnc(-c3ccccc3)o2)c1C
→ -13.8%	>57
CCN(CC)CCCNc1nc2ccccc2[nH]1
→ -3.6%	>57
O=C(O)c1ccccc1-c1c2cc(Br)c(=O)cc-2oc2[c]([Hg])c(O)c(Br)cc12
→ ?	0.0366*
CCOC(=O)c1ccc(NC(=O)c2nccnc2C(=O)O)cc1
→ -6.6%	>57
NC(=O)Cn1c(=O)n(CCCC(=O)NC2CCN(Cc3ccccc3)CC2)c(=O)c2ccccc21
→ -5.7%	>57
COCCOC(=O)c1[nH]c2c(c1C)C(=O)CC(c1ccccc1)C2 (configuration not stated)
→ -15.9%	>57
O=C1CCC(=O)N1CNc1ccc(Oc2ccccc2)cc1
→ -2.1%	>57
CCOC(=O)Nc1ccc(Oc2ccccc2)cc1
→ -3.1%	>57
Cc1cccc2c1nc(-c1ccccc1)n1cnnc21
→ -7.8%	>57
OCC1OC(n2nc3ccccc3n2)C(O)C(O)C1O (configuration not stated)
→ ?	>57
Cc1cc(-n2c(C)cc(C(=O)COc3ccc4ccc(=O)oc4c3)c2C)no1
→ -6.4%	>57
O=c1nc(N2CCCC2)nc(Nc2ccccc2)[nH]1
→ 11.5%	>57
Cc1noc(C)c1S(=O)(=O)N1CCC(C(=O)NC2CCCc3ccccc32)CC1 (configuration not stated)
→ 4.7%	>57
N#Cc1c(-c2ccccc2)nc(SCc2nc(N)nc(N3CCCCC3)n2)[nH]c1=O
→ 5.7%	>57
Cc1cnc(CNc2ncnc3ccc(-c4cccc(NS(C)(=O)=O)c4)cc23)cn1
→ -11.6%	>57
COc1ccc(-n2c(=O)c(-c3ccc(Cl)cc3)nc3cnc(N4CCNCC4)nc32)cc1
→ ?	>57
CNCc1ccc(OCc2ccccc2)c(OC)c1
→ 3.8%	>57
CCC(=O)NC1(C(F)(F)F)C(=O)Nc2c1c(=O)n(C)c(=O)n2C (configuration not stated)
→ 7.6%	>57
COCCn1cc(C(=O)c2ccccc2OCC(=O)Nc2cc(C)on2)cc(C#N)c1=O
→ /	>57
Brc1ccccc1OCCCN1CCOCC1
→ -0.7%	>57
CC1=C(C(=O)OC(C)C)C(c2ccc(N(C)C)cc2)C2=C(CC(C)(C)CC2=O)N1 (configuration not stated)
→ 2.4%	>57
CCOC(=O)COc1ccc2c(c1)c(C(=O)OCC)c(C)n2CC
→ 10.4%	>57
O=C(Nc1cnccn1)c1cccnc1
→ 14.0%	>57
O=C(CN1C(=O)NC2(CCc3ccccc32)C1=O)Nc1cc(C(F)(F)F)ccc1N1CCOCC1 (configuration not stated)
→ -6.6%	>57
Cc1ccc(C2C3=C(CCCC3=O)Nc3[nH]c(=S)[nH]c(=O)c32)cc1 (configuration not stated)
→ -10.9%	>57
COc1cccc(CNS(=O)(=O)c2cn(C)cn2)c1
→ -8.8%	>57
NC(N)=N/N=C\c1ccc(O)c(C(=O)O)c1
→ 0.6%[8 µM]	>57
CCCC(=O)Nc1cccc(-c2nc3ccccc3o2)c1
→ -8.6%	>57
Cc1cc(C(=O)Nc2nnc(-c3ccccc3)s2)no1
→ 8.3%	>57
CC(=O)C1=C(O)C(=O)N(c2cc(C(C)(C)C)on2)C1c1ccc(C(C)C)cc1 (configuration not stated)
→ -8.6%	>57
CCCSc1nc2c(c(=O)n(C)c(=O)n2C)n1Cc1ccc(C)cc1
→ -7.5%	>57
Cc1cccc(NC(=O)C2CC(O)CN2C(=O)OCc2ccccc2)c1 (configuration not stated)
→ 6.0%	>57
Cn1c(=O)oc2cc(S(=O)(=O)N3CCCC(C(=O)N4CC=C(c5ccccc5)CC4)C3)ccc21 (configuration not stated)
→ ?	>57

# New compounds follow:
SMILES | LT uptake inh | SmPrx2 inh
Cn1cccc1Cc1nnc(SCC(=O)N2CCc3ccccc32)n1CCc1ccccc1 | -16.4% | >57
CCn1c(SCC(=O)C(C)(C)C)nnc1-c1ccccn1 | -1.5% | >57
COc1ccc(-c2noc(-c3ccccc3C(=O)Nc3cccnc3)n2)cc1OC | ? | >57
ClC(Cl)c1ccccc1 | 0.7% | /
CC(=O)N1CC=CC1(CC(C)C)C(=O)NCC1CC1 (configuration not stated) | -4.6% | /
COc1ccc(S(=O)(=O)N2CCC(O)(c3ccc(Cl)cc3)CC2)cc1 | 1.6% | >57
c1cncc(CNc2cc(-c3ccc4c(c3)OCO4)ncn2)c1 | 3.1% | >57
C/C(=N\O)c1ccc(N2C(=O)C3CC=C(Cl)CC3C2=O)cc1 (configuration not stated) | -13.8% | /
CCc1cc(C(=O)OC)c(NC(=O)CCCC(=O)O)s1 | 3.6% | >57
O=C1Nc2ccccc2C12OCCO2 | -16.6% | >57
C/C(N)=C(/C#N)C(=O)CN1CCCCC1 | ? | >57
O=C(CCCOc1ccccc1)N1CCN(C(=O)c2ccco2)CC1 | ? | >57
O=C(CN1C(=O)CSC1=O)N1CCc2ccccc2C1 | 1.2% | >57
O=C(Nc1ccc(S(=O)(=O)N2CCCCC2)cc1)c1cnccn1 | ? | >57
CCCCOC(=O)c1ccc(NS(=O)(=O)c2cc(-c3nnnn3CC)ccc2OC)cc1 | -3.8% | >57
COc1cc(C(=O)N2CCN(C(=O)c3ccco3)CC2)cc(OC)c1OC | 4.2% | >57
CCNc1ncc2ncc(=O)n(Cc3cccc(OC)c3)c2n1 | -4.8% | >57
O=S(=O)(c1cccc2cccnc12)N(CCO)CCO | 0.1% | >57
Cc1ccc(S(=O)(=O)N2CCCC(C(=O)NC3=NCCS3)C2)cc1 (configuration not stated) | -2.3% | >57
c1ccc(Cn2nnc3c(NCCN4CCOCC4)ncnc32)cc1 | -3.7% | >57
CC1(C)C2CCC13CS(=O)(=O)N[C@@H]3C2 (some centres not stated) | -12.6% | >57
CCOC(=O)C(C)Sc1nnc(-c2ccccc2O)n1Cc1ccccc1 (configuration not stated) | -0.6% | >57
Clc1ccc(OCCn2ccnc2)c(Cl)c1 | ? | >57
Cc1cc2cc(CNC(=O)c3ccc4c(c3)OCO4)ccc2[nH]1 | -16.7% | >57
O=C(CC1CCS(=O)(=O)C1)NC1CCCCC1 (configuration not stated) | -3.7% | >57
O=c1cc(CN2CCN(CCO)CC2)c2cc3c(cc2o1)CCC3 | ? | >57
CC[C@H](CO)NCCN[C@@H](CC)CO | 10.6%[3.58 µM] | >57
CNC(=O)c1c(N)sc2c1CCCCC2 | -10.1% | /
COc1cccc(N(CC(=O)Nc2cccc(C(C)=O)c2)S(C)(=O)=O)c1 | ? | /
CCCCOc1ccccc1NC(=O)C=C(C)C | -25.4% | >57
O=C(CCC(=O)c1ccc[nH]1)c1ccc(Cl)cc1 | -11.1% | >57
CCC(=NCc1ccc(F)cc1)c1c(O)n(C)c(=O)n(C)c1=O | 5.6% | >57

# Continued; the last 6 above are carried over.
SMILES | LT uptake inh | SmPrx2 inh
CC[C@H](CO)NCCN[C@@H](CC)CO | 10.6%[3.58 µM] | >57
CNC(=O)c1c(N)sc2c1CCCCC2 | -10.1% | /
COc1cccc(N(CC(=O)Nc2cccc(C(C)=O)c2)S(C)(=O)=O)c1 | ? | /
CCCCOc1ccccc1NC(=O)C=C(C)C | -25.4% | >57
O=C(CCC(=O)c1ccc[nH]1)c1ccc(Cl)cc1 | -11.1% | >57
CCC(=NCc1ccc(F)cc1)c1c(O)n(C)c(=O)n(C)c1=O | 5.6% | >57
O=C(CCc1nc2ccccc2[nH]1)Nc1ccc2c(c1)OCCO2 | -7.5% | >57
O=C(Nc1ccc(SC(F)F)cc1)c1ccc2nccnc2c1 | ? | >57
CCOc1ccc(CCNC(=O)CN(C)S(=O)(=O)c2cccc3nsnc23)cc1OCC | -6.6% | >57
CCC1CCCCN1S(=O)(=O)c1ccc2c(c1)CCN2C(=O)C1CCC1 (configuration not stated) | -2.5% | >57
CN(C)C(=O)N1CCN(C(=O)c2ccco2)CC1 | 0.0% | >57
Cc1noc(C)c1CSCC(=O)OCC(=O)Nc1sccc1C#N | -1.7% | >57
O=C(CS(=O)(=O)c1ccccc1)c1ccc2c(c1)OCCO2 | 10.4% | >57
CCn1cc(C(=O)NCC(=O)OC)c2cc(OC)c(OC)cc2c1=O | 5.8% | >57
Cc1ccccc1OCC(O)Cn1c(SC(C)C)nc2c1c(=O)[nH]c(=O)n2C (configuration not stated) | -20.0% | >57
CCCCC1CC1C(=O)Nc1ncc2c(n1)CC(C)(C)CC2=O (configuration not stated) | -5.9% | >57
COCCOC(=O)c1c(C)oc2ccc(O)c(CN3CCC(C)CC3)c12 | ? | >57
O=C1c2cccnc2C(=O)N1c1cccc(-c2nc3ccccc3o2)c1 | -5.6% | >57
CC1(C)CC(=O)c2cc(C(=O)NCc3ccco3)c(=O)n(-c3ccccc3)c2C1 | -2.6% | >57
O=C(CSc1nc2cc(Cl)ccc2o1)N1CCOCC1 | -7.1% | >57
CCOC(=O)c1ccc(NC(=O)CSc2nnc(-c3cccs3)n2CC)cc1 | -0.9% | >57
CCOCCOC(=O)C1=C(C)N(C)C(=O)NC1c1cc(Cl)c(O)c(OC)c1 (configuration not stated) | 8.3% | >57
NC(=O)c1ccccc1NS(=O)(=O)Cc1ccc(Cl)cc1 | 2.9% | >57
CCn1c(SCC(=O)NCc2ccco2)nc2c1c(=O)n(C)c(=O)n2C | 2.9% | >57
CCOc1cc(C2C(C(=O)c3ccc(C)o3)=C(O)C(=O)N2CCc2ccccc2)ccc1O (configuration not stated) | -9.3% | >57
O=C(Cn1ccc2ccccc2c1=O)NCCC(=O)N1CCN(C(=O)c2ccco2)CC1 | 12.0% | >57
CN1CCN(c2nc(-c3ccc(N(C)C)cc3)nc3ccccc23)CC1 | ? | >57
COc1ccc(OC)c(S(=O)(=O)n2nc(-c3ccccc3)cc2N)c1 | -16.7% | >57
O=C(O)CCCCCNC(=O)CCn1nnc2ccccc2c1=O | 6.6% | >57
CCOC(=O)c1ccccc1NC(=O)c1ccc2c(=O)n3c(nc2c1)CCCCC3 | ? | >57
CCC(C)C(NC(=O)c1ccccc1NC(=O)c1ccco1)C(=O)NC1CCCCC1 (configuration not stated) | -10.3% | /
COCCn1c(=S)[nH]c2cc(C(=O)NCC3CCCO3)ccc2c1=O (configuration not stated) | ? | >57

# These rows are one share of the data; the hit share may differ from the screen's.
